PABP FP inh = blocks human PABP binding to poly(A) RNA; P11940; fluorescence polarization; inhibition, % at 35 µM; 290,000 tested, 1% active; AID 2014;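 active = 50% or more with normal probe brightness, or confirmed in later tests; about a fifth of its hits are not listed in these tables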;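 also: calls also rest on retests at 20 µM and on dose response follow-up; controls were probe without protein and protein plus probe with vehicle; some compounds called inactive have numbers as strong as hits; many hits fall short of the cut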
Target sequence (P11940 whole entry, looked up): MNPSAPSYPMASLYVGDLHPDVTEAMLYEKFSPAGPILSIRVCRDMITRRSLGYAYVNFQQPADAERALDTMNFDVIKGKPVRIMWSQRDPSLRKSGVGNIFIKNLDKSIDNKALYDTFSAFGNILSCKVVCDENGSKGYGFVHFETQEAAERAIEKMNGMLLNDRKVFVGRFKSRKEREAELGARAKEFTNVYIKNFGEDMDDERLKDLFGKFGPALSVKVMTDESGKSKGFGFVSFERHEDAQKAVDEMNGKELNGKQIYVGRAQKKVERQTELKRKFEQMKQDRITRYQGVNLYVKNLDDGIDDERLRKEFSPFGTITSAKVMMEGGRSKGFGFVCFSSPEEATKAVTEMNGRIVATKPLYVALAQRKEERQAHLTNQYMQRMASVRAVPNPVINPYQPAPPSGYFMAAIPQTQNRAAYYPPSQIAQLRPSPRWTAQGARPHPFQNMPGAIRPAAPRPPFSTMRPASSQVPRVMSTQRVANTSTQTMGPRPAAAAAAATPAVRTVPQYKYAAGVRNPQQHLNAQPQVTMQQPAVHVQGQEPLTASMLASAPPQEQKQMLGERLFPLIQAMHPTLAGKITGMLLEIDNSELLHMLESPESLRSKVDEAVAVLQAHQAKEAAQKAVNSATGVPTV
CSC inhib = blocks cancer stem cells | 300,000 tested, 1.1% active | inhibition, % at 7.5 µM | cancer stem cell-like cells viability, luminescence;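 active = mean at 75% or more and at least half the replicates too; tested in HMLE shEcad cells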;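 also: 0% = median of negative and 100% = median of positive control wells; the first replicate is given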
Env fusion inh = inhibitors of HIV Env-mediated cell fusion; HeLa-JRFL Env/CEM21 cell fusion, luciferase; inhibition, % at 12.3 µM; 360,000 tested, 1.1% active; AID 651610;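 active = mean replicate inhibition score of at least 50 and every replicate individually at or above 50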;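 also: 0% = plate neutral controls and 100% = maraviroc near 300 nM; one replicate is shown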
MT1-MMP act inh = blocks activation of human MT1-MMP | P50281 | HT1080 RFP-PRO-GFP cells, GFP/RFP ratio fluorescence, overnight; percent of plate control window, DMSO zero | GFP/RFP ratio change, % at 20 µM | 360,000 tested, 0.061% active;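 active = GFP/RFP ratio change of at least 30% with cell ATP level not reduced by more than half and red fluorescence within 50% of control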; also: strong numbers were not always called active
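Material – HT1080 RFP-PRO-GFP cells · Control set – DMSO wells and RFP-L50D-GFP cells · Incubation – overnight cell settling, then overnight compound exposure, 37 °C, 5% CO2 · Compound dosing – single-point 20 µM compound, 1% DMSO · Read-out – GFP/RFP fluorescence ratio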
Rce1 inhib = blocks yeast Ras-converting enzyme; Q03530; yeast membranes, quenched prenylated peptide cleavage fluorescence; calls only; 290,000 tested, 0.27% active;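 active = fall in fluorescence gain of 50% or more versus controls, with final raw signal at or below 3038400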;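 also: plate controls were neutral control wells for no effect and wells lacking membranes for full effect; tested at 10 µM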
Target sequence (Q03530 whole entry, looked up): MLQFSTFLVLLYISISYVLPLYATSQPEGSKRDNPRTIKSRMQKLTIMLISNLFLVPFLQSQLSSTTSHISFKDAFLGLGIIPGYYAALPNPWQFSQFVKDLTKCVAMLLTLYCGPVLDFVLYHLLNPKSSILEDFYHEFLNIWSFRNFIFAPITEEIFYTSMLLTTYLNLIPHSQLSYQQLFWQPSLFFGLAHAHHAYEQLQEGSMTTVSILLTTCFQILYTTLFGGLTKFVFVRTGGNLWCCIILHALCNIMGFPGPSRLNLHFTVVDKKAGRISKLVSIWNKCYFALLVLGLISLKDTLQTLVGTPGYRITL
eIF4H FP inh = inhibitors of RNA binding by human eIF4H; Q15056; eIF4H fluorescence polarization binding assay; inhibition, % at 35 µM; 290,000 tested, 0.94% active;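 active = 50% or more with normal probe brightness, or confirmed in later tests; about a fifth of its hits are not listed in these tables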;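 also: calls also rest on retests at 20 µM and on dose response follow-up; 0% = protein and probe with vehicle and 100% = probe without protein; strong numbers were not always called active; many hits fall short of the cut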
Yeast UUG start = modulators of start codon recognition fidelity in yeast; S. cerevisiae UUG-firefly luciferase reporter, luminescence/redox ratio; activity score, % at 18.7 µM; 350,000 tested, 0.13% active; AID 602363;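 active = replicate mean at a twofold rise or more, about +100% in these data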;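 also: firefly luciferase made from a UUG start codon reports start codon fidelity; reporter light over untreated wells divided by growth signal over untreated wells; some hits fall short of that in this replicate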
eIF4H FP inh retest = further read-out of eIF4H FP inh, marked with its call; inhibition, %; compound at 20 µM; confirmation average;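 mean of two retest wells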
PABP FP inh retest = second read-out of PABP FP inh, no call of its own (marks repeat the call); inhibition, %; compound at 20 µM; confirmation repeats;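 mean of two retest wells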
MT1-MMP act inh RFP = also measured in MT1-MMP act inh; calls as there; RFP signal change, %; measured here: RFP expression control read;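 0 = vehicle wells; hits needed this value within 50% of zero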
* = called active by the depositor; i = inactive; / = not tested or not shown. Only part of the results is shown, so the mix of outcomes need not match the whole.

SMILES | PABP FP inh | CSC inhib | Env fusion inh | MT1-MMP act inh | MT1-MMP act inh RFP | Rce1 inhib | eIF4H FP inh | Yeast UUG start | others
COCCn1ccc2c(OCC(=O)NCc3ccccc3)cccc2c1=O | / | -6 | 0 | 4 | -3 | i | / | /
COc1ccc(CNCc2cc(OC)ccc2OC)cc1 | 14 | 3 | -46 | 0 | 1 | i | 13 | -12
COc1cc(C(=O)N2CCN(C/C=C/c3ccccc3)CC2)cc(OC)c1OC | -12 | -9 | -45 | 1 | 5 | i | 2 | -15
O=C(CSc1nc2ccccc2nc1N1CCCC1)Nc1ccc(F)cc1 | -8 | 4 | / | -5 | -5 | i | 2 | -8
CCOC(=O)c1nnn(-c2ccc([N+](=O)[O-])cc2[N+](=O)[O-])c1C | 20 | 14 | -22 | -2 | -9 | i | 4 | /
CSCCC(NS(=O)(=O)c1ccc(Cl)cc1)C(=O)OCC(=O)NC1CCCCC1 (stereo not given) | -6 | -10 | / | -7 | -2 | / | -3 | -12
CCNC(=S)N(CCc1c(C)[nH]c2ccc(Cl)cc12)Cc1ccco1 | 11 | -2 | 10 | -8 | -10 | i | -2 | -22
CC(C)(C)OC(=O)CNC(=O)c1[nH]cnc1C(=O)NC(c1ccccc1)c1ccccc1 | -2 | 7 | -28 | -2 | -11 | i | 7 | -17
CCN(CC)C(=O)OCc1c(-c2ccccc2)ncc2ccccc12 | / | 7 | -19 | 2 | -3 | / | / | 3
COc1cc(NC(=O)CCc2nnc3ccc(N4CCCC4)nn23)cc(OC)c1OC | 1 | -18 | -6 | 0 | 3 | i | -2 | -12
COc1ccccc1N1CCN(C(=O)C(C)N(c2ccccc2)S(C)(=O)=O)CC1 (stereo not given) | -10 | -3 | -68 | 2 | 0 | i | -8 | -11
CCc1nc2c(OCC3CCCCC3)cccn2c1N(C=O)Cc1ccc(OC)cc1 | / | / | i | -12 | -13 | / | / | -15
COC(=O)Cn1c(CCS(=O)(=O)c2ccc(Cl)cc2)nc2ccccc21 | -3 | -12 | / | 1 | -2 | i | -5 | -10
C[C@H](O)[C@@H]1CN2CCc3c([nH]c4ccc(-c5ccc6c(c5)OCO6)cc34)[C@@H]2C[C@@H]1N(C)C(=O)Nc1cc(Cl)cc(Cl)c1 | / | / | -21 | -4 | -13 | / | / | -12
Cc1ccc(C(=O)/C=C/c2cn(CN3CCN(C)CC3)c3ccccc23)cc1 | 2 | / | -47 | -2 | -2 | i | -4 | -31
COc1ccc(C(=O)N2CCC(C(=O)N3CCN(Cc4ccccc4)CC3)CC2)cc1 | 3 | -5 | -1 | 3 | 8 | i | 49 | -2
CSc1ccccc1OCc1cc(C(=O)NCC(C)(C)N2CCOCC2)no1 | -8 | 13 | 15 | 7 | 0 | i | 5 | -23
COc1ccccc1C(=O)CC(=O)C(=O)Nc1cccc([N+](=O)[O-])c1C | 12 | -2 | -7 | -3 | -4 | i | 8 | -4
O=C(O)CCCCCNC(=O)C(=O)C1C(=O)Nc2ccccc21 (stereo not given) | 9 | -2 | 0 | -5 | 1 | i | -4 | -1
O=C(NCc1ccccc1)C(c1ccco1)N(C(=O)c1csnn1)c1ccccc1F (stereo not given) | 4 | -4 | 5 | 1 | 0 | i | -8 | -13
COc1cc(/C=C2/C(=O)NN(c3ccc(C)c(Cl)c3)C2=O)cc([N+](=O)[O-])c1O | 13 | 2 | 0 | 0 | 0 | i | -3 | -8
Cc1ccc(Cl)cc1NS(=O)(=O)c1ccc2oc(=O)ccc2c1 | -3 | 8 | 1 | 2 | -1 | i | 3 | -2
CCNC(=O)COc1cccc2ccccc12 | 2 | 4 | -96 | 1 | 1 | i | -3 | -9
Cc1ccc(N2CC(C(=O)OCC(=O)Nc3ccccc3F)CC2=O)cc1 (stereo not given) | -13 | -8 | 9 | 6 | 0 | i | -7 | /
S=C(NCC1CCCO1)N1CCN(c2ccccc2)CC1 (stereo not given) | 4 | / | 15 | 3 | -1 | i | -1 | /
c1ccc(-n2ncc3c(NC4CCCCCC4)ncnc32)cc1 | 5 | 47 | -76 | -5 | -4 | i | -3 | -17
Cc1ccc(SCCC(=O)Nc2c(C)n(C)n(-c3ccccc3)c2=O)cc1 | -4 | -6 | -19 | 0 | 2 | i | -3 | -9
CCOC(=O)N1CCC(NC(=O)C2CCN(Cc3nc(-c4ccc(CC)cc4)oc3C)CC2)CC1 | / | / | -41 | 0 | -12 | / | / | -4
C=CCNC(=O)C1=NN(c2c(F)c(F)cc(F)c2F)C(=O)CC1 | 7 | -6 | 2 | -1 | 0 | i | 6 | -12
O=C(COC(=O)CNC(=O)C1CCCCC1)Nc1ccc(F)c([N+](=O)[O-])c1 | / | -8 | 0 | 0 | 4 | / | / | -21
COc1ccc(C2/C(=C(/O)c3ccccc3)C(=O)C(=O)N2c2ccccn2)cc1OC (stereo not given) | 12 | -11 | -7 | 1 | 1 | i | 0 | /
O=C(CN(Cc1ccccc1)C(=O)CCC(=O)Nc1ccccn1)NCc1ccc(F)cc1 | 0 | 7 | -8 | 1 | 3 | i | -7 | -12
COc1ccc(N(CN2C(=O)c3ccccc3C2=O)C(=O)C(C)C)cc1 | -8 | -5 | -15 | 0 | 1 | i | 0 | -13
CN(C)c1ccc(NC(=S)c2ccc3ccccc3n2)cc1 | 6 | 11 | -31 | 2 | 1 | i | -7 | -25
COc1ccc(Nc2c3c(nc4ccccc24)CCCC3)cc1OC | 4 | -3 | 1 | -9 | -2 | i | -6 | /
CCN(CC(=O)Nc1c(F)cccc1F)C(=O)CCC(=O)c1ccc(F)cc1 | / | -19 | / | 1 | 4 | i | / | /
CCc1nc2ccccc2c(C(=O)OCC(=O)NCc2ccc3c(c2)OCO3)c1C | 3 | -2 | 10 | -2 | -2 | i | -5 | /
C#Cc1ccc(C(=O)Nc2cc(C(N)=O)ccc2N2CCOCC2)cc1 | -10 | / | -86 | 1 | -4 | i | 20 | -7
C/C(=N\NC(=O)C(=O)Nc1c(C)n(C)n(-c2ccccc2)c1=O)c1ccncc1 | -2 | -6 | 19 | -2 | 1 | i | 1 | /
CCN(CC)c1nc2ccccc2n2cnnc12 | -6 | -15 | -345 | / | / | i | 7 | -7
CCOC(=O)C1C(=O)NC(c2ccccc2)=NC1c1ccc(F)cc1 (stereo not given) | 1 | -5 | / | 2 | 3 | i | -12 | -9
COc1ccccc1NC(=O)CN1CCN(CC(=O)Nc2ccccc2Cl)CC1 | -2 | -10 | 20 | 2 | 1 | i | 2 | -3
Cc1ccc(Nc2nc(CSc3nnnn3-c3ccccc3)cc(=O)[nH]2)cc1 | 3 | 32 | -13 | 2 | -2 | i | 36 | -49
Cc1nccn1-c1c2c(c(C#N)c3nc4ccccc4n13)CCC2 | 17 | 8 | / | / | / | i | 16 | /
O=C(CSc1nnnn1-c1ccccc1)Nc1ncc(Cc2cccc(Cl)c2Cl)s1 | -3 | 6 | -2 | 4 | 4 | i | 0 | /

In the list so far, these have a furan ring, fused or not.
SMILES | PABP FP inh | CSC inhib | Env fusion inh | MT1-MMP act inh | MT1-MMP act inh RFP | Rce1 inhib | eIF4H FP inh | Yeast UUG start | others
CCNC(=S)N(CCc1c(C)[nH]c2ccc(Cl)cc12)Cc1ccco1 | 11 | -2 | 10 | -8 | -10 | i | -2 | -22
O=C(NCc1ccccc1)C(c1ccco1)N(C(=O)c1csnn1)c1ccccc1F (stereo not given) | 4 | -4 | 5 | 1 | 0 | i | -8 | -13

The main list resumes, repeating the three entries before the break.
SMILES | PABP FP inh | CSC inhib | Env fusion inh | MT1-MMP act inh | MT1-MMP act inh RFP | Rce1 inhib | eIF4H FP inh | Yeast UUG start | others
Cc1ccc(Nc2nc(CSc3nnnn3-c3ccccc3)cc(=O)[nH]2)cc1 | 3 | 32 | -13 | 2 | -2 | i | 36 | -49
Cc1nccn1-c1c2c(c(C#N)c3nc4ccccc4n13)CCC2 | 17 | 8 | / | / | / | i | 16 | /
O=C(CSc1nnnn1-c1ccccc1)Nc1ncc(Cc2cccc(Cl)c2Cl)s1 | -3 | 6 | -2 | 4 | 4 | i | 0 | /
O=C(NC1CCCCCCC1)NC1CCCCC1 | 7 | 20 | -132 | -2 | 3 | i | 3 | -13
Cc1cc(C)cc(OCc2ccc(C(=O)O)o2)c1 | 5 | -7 | -27 | 0 | 6 | i | 1 | 9
Cc1cc(C)nc(SC2CCCCC2NS(=O)(=O)c2ccc(Cl)cc2)n1 (stereo not given) | 10 | / | / | -4 | -3 | i | 0 | /
O=C1C(=O)N(CC2CCCO2)C(c2ccccc2[N+](=O)[O-])/C1=C(/O)c1ccccc1 (stereo not given) | 10 | 8 | 6 | -2 | 8 | i | 6 | -15
O=C(CCNC(=O)c1ccccc1Cl)NCc1ccncc1 | / | -2 | -3 | -4 | 1 | i | / | /
O=C(O)CSc1nc2c(c(=O)[nH]1)CCCC2 | 8 | 2 | -20 | 2 | 6 | i | 0 | /
C/C(=N\O)c1ncc(C(F)(F)F)cc1Cl | -2 | -1 | 20 | 0 | 6 | i | 2 | -7
Cc1cc(C)c(N2C(=NC(=O)CCCC(=O)O)SC3CS(=O)(=O)CC32)c(C)c1 (stereo not given) | 1 | -17 | -49 | 1 | 6 | i | -5 | 5
C/C(=N\NC(=O)C(C)Sc1ccccc1)c1ccc([N+](=O)[O-])cc1 (stereo not given) | 2 | -4 | 0 | -2 | -2 | i | -1 | 0
O=C(CCN1C(=O)/C(=C/c2ccccc2F)SC1=S)NC1C=CS(=O)(=O)C1 (stereo not given) | 1 | 8 | -11 | -3 | -1 | i | 12 | 1
Cc1ccc(NC(=O)c2ccc3c(c2)OCCO3)cc1 | -1 | 4 | / | 6 | 3 | i | -6 | -59
N=C1c2ccccc2CN1NC(=O)c1cccc(S(=O)(=O)N2CCCCC2)c1 | 54 | -19 | 7 | -1 | -1 | i | 2 | / | eIF4H FP inh retest=-4;PABP FP inh retest=31
CC(=O)c1sc2nc(-c3cccs3)ccc2c1N | 11 | 14 | -187 | -14 | 0 | i | 9 | -25
Cc1ccc(C(=O)NCC(C)NC(=O)c2ccc(C)c([N+](=O)[O-])c2)cc1[N+](=O)[O-] (stereo not given) | / | -6 | 16 | 2 | -3 | i | / | 1
COc1ccc(CNC(=O)COc2ccc(OC)cc2)cc1 | -4 | 0 | -15 | 0 | 0 | i | -2 | -2
COc1ccc(C2CC(c3ccccc3Cl)Nc3ncnn32)cc1OC (stereo not given) | -6 | -17 | / | 0 | -3 | i | 11 | -9
COc1cc(/C=N/Nc2ccc([N+](=O)[O-])cn2)cc(OC)c1O | 18 | 13 | 1 | -2 | -2 | i | -3 | /
Cc1nc2ccccc2c2c1C(=O)N(c1cccc(C(=O)O)c1)C2=O | -1 | -10 | -14 | 3 | 7 | i | -4 | /
O=C(CN1C(=O)NC2(CCCCCC2)C1=O)NC1CC1 | 26 | -6 | -1 | -5 | -2 | i | -6 | -19
CCN(CC)c1ccc(C(=O)OCC(=O)N(C)Cc2ccccc2)cc1 | -21 | 19 | 26 | -1 | -1 | / | -8 | /
Cc1cn(C2CCC(CO)O2)c(=O)[nH]c1=O (stereo not given) | -2 | 0 | -9 | -2 | 1 | i | -10 | -10
O=P(O)(O)c1cc(-c2ccccc2)oc1-c1ccccc1 | 6 | -4 | -23 | 6 | 4 | i | 4 | /
COc1cc(NC(=S)NCCCN2CCOCC2)c(OC)cc1Cl | 1 | -9 | 21 | 3 | 0 | / | 5 | -6
Cc1cc(N(C)C)ccc1N=Nc1ccc2ncccc2c1 | -7 | 10 | -74 | 12 | 0 | i | -11 | -22
O=S(NCc1ccccc1)C12CC3CC(CC(C3)C1)C2 (stereo not given) | 4 | -11 | / | 4 | 2 | i | -10 | -8

High-throughput results from PubChem BioAssay.
